GLA inh pH 4.5: blocks human alpha-galactosidase A at pH 4.5. purified enzyme, 4-MU-alpha-Gal fluorescence, pH 4.5. 230,000 tested, under 10 active. P06280. activity change, negative = inhibition, % at 105 µM; inconclusive = small, poorly fitted or top-dose-only inhibition, or a rising curve; inactive = flat fitted curve, though single readings scatter; no compound was filed as active;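 also: 0% = full activity with enzyme and -100% = basal without enzyme; dose as in the result columns while the protocol names 77 µM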
Rango complex inh: inhibitors of Rango-importin beta complex formation | AID 540263 | Q14974 | Rango CFP/YFP FRET sensor + importin beta, 45 min | hit rate 0.031% among 340,000 | Potency, µM (series often up to 92.2 µM), without a hit: at the highest dose inhibition of complex formation; active = rising FRET ratio curve, often small or poorly fitted; inconclusive = mostly compound fluorescence or quenching in the first reads; inactive = flat curves in all reads;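 also: potency is read from the fitted curve at half-maximal effect; 0% = DMSO wells and 100% = buffer wells lacking importin beta; nearly all actives have a fitted effect of over 15% in size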
Target sequence (Q14974 whole entry, looked up): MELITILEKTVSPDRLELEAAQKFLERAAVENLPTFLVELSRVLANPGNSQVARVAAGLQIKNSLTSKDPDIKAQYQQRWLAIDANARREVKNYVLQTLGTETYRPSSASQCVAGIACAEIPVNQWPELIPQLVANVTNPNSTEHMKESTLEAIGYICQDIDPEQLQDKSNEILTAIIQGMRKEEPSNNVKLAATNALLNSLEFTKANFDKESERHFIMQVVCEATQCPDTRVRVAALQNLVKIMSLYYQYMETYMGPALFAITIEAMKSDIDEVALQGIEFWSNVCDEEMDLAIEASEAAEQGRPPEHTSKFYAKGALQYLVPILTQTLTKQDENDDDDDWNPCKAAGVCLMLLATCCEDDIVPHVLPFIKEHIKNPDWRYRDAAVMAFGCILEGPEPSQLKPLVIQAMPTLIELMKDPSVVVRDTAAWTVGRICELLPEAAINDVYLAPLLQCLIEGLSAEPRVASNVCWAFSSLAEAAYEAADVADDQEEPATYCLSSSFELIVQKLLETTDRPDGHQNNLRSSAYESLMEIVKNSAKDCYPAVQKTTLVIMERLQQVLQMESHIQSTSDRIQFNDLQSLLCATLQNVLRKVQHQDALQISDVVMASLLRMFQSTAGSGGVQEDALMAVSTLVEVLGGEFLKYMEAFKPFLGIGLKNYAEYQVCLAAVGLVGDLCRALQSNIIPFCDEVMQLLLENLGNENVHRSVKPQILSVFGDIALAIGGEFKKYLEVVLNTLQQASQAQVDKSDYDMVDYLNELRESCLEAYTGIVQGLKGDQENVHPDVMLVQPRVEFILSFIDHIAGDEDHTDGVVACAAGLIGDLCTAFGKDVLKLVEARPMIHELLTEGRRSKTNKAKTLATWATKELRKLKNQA
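FRET biosensor (snurportin 1 IBB flanked by EYFP and cerulean), 50 nM, with compound 5 min, then 0.125 microM importin beta in PBS, 1 mM DTT, 0.02% Tween-20, 0.1% BSA. CFP/YFP ratio read after 45 min at room temperature; pre-read flags interference.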
Rango release inh: prevents RanGTP from dissociating the Rango-importin beta complex; Biochemical FRET Rango-importin beta, RanGTP-induced dissociation; hit rate 0.071% among 340,000; Potency, µM (doses to about 46.1 µM), for the others: at the top dose activity change, negative = inhibition; O95149+P62826; active means falling FRET ratio curve, often poorly fitted, with flat reads before Ran was added; inconclusive means other falling curves, or compound fluorescence or quenching; inactive means flat or rising ratio curve;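 also: potency is read from the fitted curve at half-maximal effect; % of control where 0% means no effect; nearly all actives have a fitted effect of over 45% in size; -100% = wells without RanGTP and RCC1; the record marks most hits as doubtful in a second field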
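Rango FRET biosensor (snurportin-1 IBB flanked by N-terminal EYFP and C-terminal CFP10) at 0.1 uM, with 0.25 uM importin beta in PBS, 1mM DTT, 0.02% Tween-20, 0.1% BSA. 0.6 uM Ran, 2mM GTP and 0.2 uM RCC1 were then added for 45 min at room temperature. Inhibition read as loss of FRET rise.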
miR-21 FLuc: miR-21 reporter, rising signal; 340,000 tested, under 10 active; HeLa miR-21 FLuc reporter, luciferase, 48 h; AID 2288; Potency, µM (highest dose often 38.3 µM), for inactives: at the top dose reporter change, positive = more light; active = well fitted rising curve with a large enough effect; inconclusive = small, poorly fitted or top-dose-only effect; inactive = no such curve, though single readings can be large or run the other way;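 also: % of control where 0% means no effect; miR-21 action dims this reporter so a rising signal means less miR-21 action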
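Using DMEM plus 10% FBS, HeLa miR-21-FLuc cells are incubated with test compounds (final up to about 40uM) for 48 hours; firefly luciferase signal is then imaged following reagent-mediated lysis.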
* marks the source's active call; other numbers are inactive results; ? = inconclusive; / = no result given; & = joins results of further samples; [ ] = another dose, or the depositor's remark.

Start of the listing, in advance, 3 compounds:
Structure	GLA inh pH 4.5	Rango complex inh	Rango release inh	miR-21 FLuc
CCOC(=O)C1C(=O)C=C(N2CCOCC2)CC1c1cccc(OC)c1 (stereo unspecified)	-8	0.1%	2%	-3%
COc1ccc(C(=O)CNC2=NCCC2)cc1	-1	3.5%	-5%	3%
COc1cccc(C(=O)NCCNC(=O)c2ccc(C)nc2)c1	/	-2.1%	-5%	1%

The listing, previewed entries included:
Structure	GLA inh pH 4.5	Rango complex inh	Rango release inh	miR-21 FLuc
CCOC(=O)C1C(=O)C=C(N2CCOCC2)CC1c1cccc(OC)c1 (stereo unspecified)	-8	0.1%	2%	-3%
COc1ccc(C(=O)CNC2=NCCC2)cc1	-1	3.5%	-5%	3%
COc1cccc(C(=O)NCCNC(=O)c2ccc(C)nc2)c1	/	-2.1%	-5%	1%
COc1ccc(CN2CCN(CC3CC3)CC2CCO)cc1C (stereo unspecified)	/	-2.2%	0%	3%
COc1ccccc1NC(=O)c1ccc(NC(=O)C2CC2)cc1	/	-0.1%	3%	/
Fc1cccc(Cl)c1Cn1nnc2c(NCc3ccccn3)ncnc21	-6	0.5%	-2%	-8%
CC1CCC(N(CCCN)Cc2ccco2)CC1C (stereo unspecified)	-6	0.5%	0%	1%
CC(C)c1nnc(N2C(=O)C(O)=C(C(=O)c3cccs3)C2c2ccccc2)s1 (stereo unspecified)	-18	?	?	-42%
Cc1cccc(N2C(S)=C(C#N)C(=O)NC2c2ccco2)c1 (stereo unspecified)	5	-0.2%	3%	6%
Cc1ccc(NC(=O)C(C)OC(=O)COc2cccc(C(F)(F)F)c2)cc1S(=O)(=O)N1CCOCC1 (stereo unspecified)	/	-3.6%	7%	/
COC(=O)[C@@]1(Cc2ccc(F)cc2)[C@H]2c3cc(C(=O)N4CCCC4)n(CCc4c[nH]c5ccc(OC)cc45)c3C[C@H]2CN1C(=O)c1ccccc1	-17&-7	/	/	-2%
COC(=O)c1ccc(CNC(=O)Cn2cc(C)c(=O)[nH]c2=O)cc1	/	-2.1%	-5%	/
O=C(Nc1ccc(-c2ccccc2)cc1)c1ccc2c(c1)S(=O)(=O)c1ccccc1C2=O	/	0.0%	1%	/
CCCC(=O)Nc1sc(C(=O)OC)c(C)c1C(N)=O	-4	3.9%	-13%	-15%
C(=C\c1ccccc1)/CSc1nnc(-c2cnccn2)n1Cc1ccco1	-8	-2.0%	8%	14%
Cn1c(SCC(=O)NCc2ccco2)nnc1C1CC1	/	-0.3%	?	/
Cc1nc(SCC(=O)NCc2ccco2)nc(C)c1C	-8	0.0%	-1%	-4%
CC1(C)CC2(C)OC(=N)C1(C#N)C2(C#N)C#N (stereo unspecified)	-3	3.1%	-6%	13%
CCOC(=O)C1CCCC12Nc1cccc3cccc(c13)N2 (stereo unspecified)	/	-3.1%	-7%	/
CN(C)C(CNC(=S)Nc1ccccc1Cl)c1cccnc1 (stereo unspecified)	-6[21.1 µM]	0.5%	-1%	-1%

Next part
Structure	GLA inh pH 4.5	Rango complex inh	Rango release inh	miR-21 FLuc
CN1C(=O)C(O)(CC(=O)c2cccc(-n3cccc3)c2)c2ccccc21 (stereo unspecified)	-2	1.1%	30%	-4%
CC1CN(C(=O)COC(=O)c2nn(-c3ccccc3)c(=O)c3ccccc23)CC(C)O1 (stereo unspecified)	1	5.0%	-10%	1%
CCOc1cc(/C=N/Nc2nnc(C)n2N)ccc1O	/	3.7%	3%	12%
COc1ccc(N2CCN(CC(O)COc3ccc([N+](=O)[O-])cc3)CC2)cc1 (stereo unspecified)	-1	-3.7%	1%	-1%
O=C1CC(=O)Nc2cc(S(=O)(=O)N3CCOc4ccccc43)ccc2N1	/	?	27%	6%&9%
Cc1cc(C(=O)OCC(=O)Nc2nc(-c3ccccc3)cs2)c(C)o1	1	4.8%	-2%	-25%
O=C(NCCCN1CCCC1=O)c1cc(S(=O)(=O)N2CCN(c3ccccc3)CC2)ccc1Cl	/	-3.8%	1%	/
CCOCCCNC(=O)C(c1ccc(OC)cc1)N(Cc1ccc2c(c1)OCO2)C(=O)c1ccccn1 (stereo unspecified)	3	-1.4%	-16%	0%
COc1ccccc1OCCCCCc1c(C)n[nH]c1C	-5	0.3%	-7%	1%
Cc1ccc2c(c1)C(c1ccncc1)=NNC(c1ccc(F)cc1)=N2	1	-0.6%	-10%	-28%
Cc1[nH]c2ccc(C(=O)NCCCN(C)C3CCCCC3)cc2c1C	/	4.3%	6%	-4%
O=C(CNC1C(=O)Nc2ccccc21)Sc1ccccc1 (stereo unspecified)	1	-2.0%	-24%	1%
CCOC(=O)C1=C(COCCN)NC(C)=C(C(=O)OC)C1c1ccccc1Cl (stereo unspecified)	-3	-0.3%&4.7%&0.5%	-6%&1%&-3%	/
FC(F)(F)c1cccc(N2CCN(c3nnnn3-c3ccccc3)CC2)c1	-3	1.9%	-4%	-1%
CCOC(=O)COc1cc(=O)n(CC)c2ccccc12	1	?	5%	-1%
COc1cccc(C(=O)NCCS(=O)(=O)NCC2CCCO2)c1 (stereo unspecified)	/	0.5%	2%	/
COc1ccc(OC)c(CNc2nc3ccccc3n2CCN2CCCCC2)c1	-8	3.2%	-10%	13%
CC(C)CNC(=O)c1ccc(NC(=O)c2ccccc2[N+](=O)[O-])cc1	2	0.8%	?	0%
C#CCOc1coc(COC(=O)c2ccccc2)cc1=O	/	-1.2%	-1%	-3%
O=C(NCCOC(=O)C1COc2ccccc2O1)c1cccnc1 (stereo unspecified)	3	4.0%	-8%	-3%

Retrieved one by one from above, 2 records:
Structure	GLA inh pH 4.5	Rango complex inh	Rango release inh	miR-21 FLuc
CCOCCCNC(=O)C(c1ccc(OC)cc1)N(Cc1ccc2c(c1)OCO2)C(=O)c1ccccn1 (stereo unspecified)	3	-1.4%	-16%	0%
CC(C)CNC(=O)c1ccc(NC(=O)c2ccccc2[N+](=O)[O-])cc1	2	0.8%	?	0%

Additional results
Structure	GLA inh pH 4.5	Rango complex inh	Rango release inh	miR-21 FLuc
CSc1ccccc1NC(=O)CN(C)C(=O)c1c(C)nn(Cc2ccccc2)c1C	/	1.0%	2%	/
CNC(=S)N(Cc1ccc2c(c1)OCO2)C1CC(=O)N(c2ccccc2)C1=O (stereo unspecified)	-4	2.8%	?	0%
Cc1cc(C)n(CC(C)Nc2nc3nonc3nc2N2CCCCC2)n1 (stereo unspecified)	-3	1.9%	-12%	0%
CCCC(=O)C1=C(O)C(C(=O)OC)C(C)(C)CC1=Nc1ccccc1 (stereo unspecified)	-5	-0.2%	11%	-1%
COc1ccccc1N1CCN(C(=O)Nc2cccc(C)c2)CC1	-5	?	-10%	-34%
CCOc1cc(C(=O)OCC(=O)Nc2cc(C)on2)ccc1OCC(C)C	3	5.7%	13%	-1%
CCCCCc1nnc(NC(=O)C2COc3ccccc3O2)s1 (stereo unspecified)	-9	-0.5%	-1%	-45%
Oc1ccccc1-c1nc(NCc2cccnc2)c2ccccc2n1	-9	2.2%	12%	5%
O=C(c1ccc(N2CCN(S(=O)(=O)c3ccccc3)CC2)c([N+](=O)[O-])c1)N1CCOCC1	-4	-1.8%	0%	6%
CCS(=O)(=O)c1nc(S(=O)(=O)c2ccc(C)cc2)c(NCCCN2CCOCC2)s1	/	1.6%	-12%	-1%
O=C(NCCCN1CCOCC1)c1cccc(S(=O)(=O)N2CCc3ccccc3C2)c1	-6	3.7%	6%	-1%
N/C(=N\OC(=O)c1cnn(-c2ccccc2)c1C(F)(F)F)c1ccc(C(F)(F)F)cc1	1	0.9%	6%	-4%
CCCC1C(=O)N(c2ccccc2)C1c1ccccc1 (stereo unspecified)	-1	3.1%	0%	-6%
C=CCN(C(=O)c1csnn1)C(C(=O)NCc1ccc(F)cc1)c1ccccc1 (stereo unspecified)	/	-0.8%	6%	10%
Cc1nc(C)c(Cc2ccccc2Cl)c(=O)[nH]1	-4	-1.1%	6%	9%
COc1ccccc1NC(=O)N1CCN(c2ncccn2)CC1	2	-0.8%	-4%	-12%
Cc1sc2ncn(CC(=O)OC(C)C(=O)NC(C)(C)C)c(=O)c2c1C (stereo unspecified)	6	3.7%	12%	1%
CN(Cc1ccccn1)C(=O)C1CCC(=O)N(Cc2cccc(C(F)(F)F)c2)C1 (stereo unspecified)	/	2.2%	-15%	1%
COC(=O)c1cc(-c2ccc(Cl)cc2Cl)n[nH]1	-2	-1.6%	10%	-53%
COC(=O)c1sccc1NC(=O)C1CC(C)=C(C)CC1C(=O)O (stereo unspecified)	1	3.6%	3%	-1%

New compounds follow:
Structure	GLA inh pH 4.5	Rango complex inh	Rango release inh	miR-21 FLuc
Cn1c(SCc2ccccc2)nnc1-c1ccc2nonc2c1	-25	1.0%	-7%	-8%
CC(C)(C)n1nnnc1C(c1cccs1)N(Cc1ccccc1)Cc1cccnc1 (stereo unspecified)	-19	0.1%	-2%	4%
COc1ccc(OC)c2c1nc1n2CCS1	5	?	-8%	-7%
Cc1cc(-c2ccc(Cl)cc2)n2nc(N)nc2n1	3	-2.3%	10%	-9%
O=C(CCSc1ccccc1)Nc1nnc(-c2ccccc2)o1	1	-3.1%	-26%	-5%
COc1ccc(NC2SC(=O)N(C)C2=O)cc1 (stereo unspecified)	6	-0.4%	-7%	-33%
CCOc1ccccc1N1CCN(Cc2ccc(OC)c(OC)c2OC)CC1	-2	-0.1%	-3%	1%
OCC[C@@H]1C[C@@H](O)[C@H](O)[C@]2(Cc3ccccc3CCO2)O1	/	0.2%	-2%	0%
CC(C)(C)OC(=O)NCCCCCNC(=O)c1nc[nH]c1C(=O)NCc1ccccc1	/	-0.2%	-13%	/
CN(C(=O)c1ccccc1C(=O)OCC(=O)Nc1ccc(OC(F)F)cc1)c1ccccc1	/	-3.4%	0%	/
O=C(Nc1c(-c2ccccc2)nc2ccccn12)c1ccco1	-11	-2.3%	18%	-16%
CC(=O)c1cccc(NC(=O)CCCSc2ccccc2)c1	/	-0.2%	19%	-9%
CCCN1CCN(S(=O)(=O)c2ccc(OC)c(Br)c2)CC1	-1	2.9%	-5%	-9%
COc1ccccc1NC(=S)NCCN1CCOCC1	-1	4.9%	-1%	-1%
COc1ccc(-c2sc3ccc(N4CCOCC4)cc3c2C#CC2(O)CCCCC2)cc1	/	-0.2%	-6%	/
COc1ccccc1CN(C)C(=O)c1cc2ccccc2o1	/	3.2%	7%	-20%
COc1ccc(C(=O)N2CC=C(c3ccccc3)CC2)cc1S(=O)(=O)N1CCOCC1	6	1.4%	5%	-9%
O=C(CSc1ncnc2nc[nH]c12)c1ccccc1	2	0.1%	4%	-39%
CSC1=NC2(C[C@H]2c2ccccc2)C(=O)N1C (stereo partly specified)	/	-1.8%	1%	/
COc1ccc(NC(=O)c2ccc(CNc3c(NC4CCCCC4)c(=O)c3=O)cc2)c(OC)c1	4	-3.5%&-2.0%	-17%&-7%	-2%

The list continues.
Structure	GLA inh pH 4.5	Rango complex inh	Rango release inh	miR-21 FLuc
CC1SCC(=O)N(CC(=O)NCc2ccccc2)C1=O (stereo unspecified)	2	2.0%	-11%	-7%
Cc1ccc(SCC(=O)OCC(=O)NCc2cccs2)cc1	/	3.3%	?	/
COc1ccccc1NC(=O)CN(c1ccc([N+](=O)[O-])cc1)S(=O)(=O)c1ccccc1	-11	-0.6%	-10%	1%
Cc1nc(NC(=O)c2ccccc2)sc1C1(C)CC(c2c(Cl)cccc2Cl)=NO1 (stereo unspecified)	-1	0.6%	-3%	9%
COc1cc2c(c(OC)c1OC)-c1ccc(SC)c(=O)cc1C(NC(=O)c1ccccc1)CC2 (stereo unspecified)	/	?	?	/
COc1cccc(-c2nc(CSCC(=O)NCC3CCCO3)c(C)o2)c1 (stereo unspecified)	4	0.6%	4%	-8%
COc1ccc(C(=O)n2nc(C)c(Br)c2C)cc1	11	-6.0%	-22%	-2%

Screening results: PubChem BioAssay, National Center for Advancing Translational Sciences (NCATS)

Not all compounds are listed; rates above refer to the full screens.
